High-throughput results (PubChem)
StopGo FLuc: FMDV 2A StopGo reporter, firefly signal. HEK cells with a luciferase reporter of 2A StopGo recoding. Potency, µM (top dose mostly 57.5 µM), inactives show at the top dose signal change, negative = less light. 0.23% of 120,000 active. AID 1745856; active = well fitted falling curve with a large enough effect; inconclusive = small, poorly fitted or top-dose-only effect; inactive = no such curve, though single readings can be large or run the other way; note: nearly all actives have a fitted effect of over 60% in size; overnight with compound
2A Renilla: FMDV 2A StopGo reporter, Renilla signal | Potency, µM (doses to about 57.5 µM), inactives show at the highest dose signal change, negative = less light | HEK cells with a luciferase reporter of 2A StopGo recoding | 0.32% of 120,000 active | AID 1745857; active means well fitted falling curve with a large enough effect; inconclusive means small, poorly fitted or top-dose-only effect; inactive means no such curve, though single readings can be large or run the other way; note: nearly all actives have a fitted effect of over 55% in size; overnight with compound
An asterisk follows results filed as active; ? = inconclusive; & = joins results of further samples; [ ] = dose if it differs, or a comment. % is set by controls: 0 for no effect and ±100 for the full control effect; potency is the fitted concentration of half-maximal effect. The list is partial; count on the stated rates, not on these rows.

SMILES	StopGo FLuc	2A Renilla
O=C(CCn1ccc2cc(S(=O)(=O)N3CCCC3)ccc21)NCc1ccccc1Br	-9%	-4%
Fc1ccc(NCc2cccn2-c2nnc(N3CCOCC3)s2)cc1	2%	-21%
COc1cc(CN(C)C(=O)Cn2c(=O)c3c(ncn3C)n(C)c2=O)ccc1OC(F)F	-9%	-15%
CCOc1ccc(NC(=O)C2CCCN(S(=O)(=O)c3ccc4[nH]c(=O)ccc4c3)C2)cc1 (centres undefined)	-17%	-3%
COc1cc(OC)c2c(C)c(CC(=O)NCc3ccccc3OC)c(=O)oc2c1	0%&-4%	-3%&4%
Cc1cc(F)ccc1NC(=O)C1CCN(C(=O)c2cnn(-c3ccccc3)c2-n2cccc2)CC1	-10%	-7%
Cc1nc2ccccc2c(C)c1CC(=O)NCC(C)C	22%	10%
CCN1CCC(NC(=O)CC23CC4CC(CC(C4)C2)C3)CC1	1%	-8%
Cc1cc(C)cc(Nc2cc(C(=O)NCCCOC(C)C)c3ccccc3n2)c1	6%	-6%
Cc1cccn2c(=O)c3cc(C(=O)N(Cc4ccccc4)C(C)C)sc3nc12	-4%	55%[activator]
CCN(CC)c1ccc(NC(=O)Cn2c(C)c3cnn(-c4ccccc4)c(=O)c3c2C)c(C)c1	-14%	-15%
O=C(O)c1cc(Cl)c(Cl)c(Cl)c1	-7%	-8%
Cc1ccc(-n2nc(C)cc2NC(=O)CSc2nnnn2-c2cc(C)cc(C)c2)cc1	16%	12%
COc1ccc(C#CCN(Cc2ccc(OC)cc2OC)C(N)=NC(=O)CCc2ccccc2)cc1	-4%	91%[activator]
O=C(CSc1ccc2c(c1)OCCCO2)NC(c1ccccc1)c1cccs1 (centres undefined)	22%	21%
CCNC(=O)c1cccc(NC(=O)Cc2c[nH]c3ccccc23)c1	0%	15%
O=[N+]([O-])c1ccc(-c2cc3ccccc3[nH]2)cc1	158%[activator]	0%
Cc1n[nH]c(C)c1C(=O)CC1(O)C(=O)N(CCc2ccccc2)c2ccccc21 (centres undefined)	-1%	50%[activator]
Cc1ccc(NC(=O)CN2C(=O)CC(C)Sc3ccccc32)c(C)c1 (centres undefined)	12%	0%
CCc1ccc(S(=O)(=O)c2nnn3c2nc(Nc2ccc(C)c(Cl)c2)c2sccc23)cc1	-19%	-15%
CCCc1cc(=O)n2[nH]c(NC(=O)CC(C)C)nc2n1	13%	20%
CC(=O)c1ccc(Nc2nc3ccccc3nc2-n2nc(C)cc2C)cc1	1%	4%
Cc1c(C(=O)NCc2ccc(Cl)cc2)sc2nc3n(c(=O)c12)CCC3	-9%	-12%
O/N=C1\CCCc2c1nc(-c1cccc(Cl)c1)n2O	26%	?
Cc1ccccc1C(=O)Nc1nnc(S(=O)(=O)N2c3ccccc3CC2C)s1 (centres undefined)	9%	-5%
COCCCNC(=O)c1cc(-c2cccnc2)nc2ccc(S(=O)(=O)N3CCC(C)CC3)cc12	-3%	-4%
Cc1ccc(SCC(=O)c2ccc3c(c2)OCCO3)c(C)c1	86%[activator]	33%[activator]
O=C(CCCSc1ccccc1)Nc1nc2ccc(F)cc2s1	165%[activator]	3%
COc1ccc(-n2nc(C)c3c2NC(=O)CC3c2cccc(OC)c2OC(C)C)nn1 (centres undefined)	20%	11%
CSCCC(NC(=O)c1ccc(Cl)cc1Cl)C(=O)Nc1ccc(C)cc1 (centres undefined)	185%[activator]	20%
CC(C(=O)Nc1ccccc1Cl)N1CCN(c2ccccc2)CC1 (centres undefined)	2%	7%
Cc1nc2nc(SCC(=O)c3ccc(F)cc3)[nH]c2cc1Br	103%[activator]	3%
O=C(C1CCN(S(=O)(=O)c2ccccc2)CC1)N1CCCC1c1ccc2c(c1)OCCCO2 (centres undefined)	-5%	16%
COc1cccc(NC(=O)CCN2CCN(c3ccccc3)CC2)c1	-13%	-2%
Brc1ccc2nc(SCCOc3ccccc3)[nH]c2c1	-2%	?
COc1ccc(-c2ncc(CCNC(=O)c3cccc(F)c3)[nH]2)cc1	22%	22%
COC(=O)c1ccc(COC(=O)c2ccc(O)cc2)o1	27%	-14%[1.06 µM]
CCCc1[nH]nc2c1C(c1ccccc1)C(C#N)=C(N)O2 (centres undefined)	11%	4%
Cc1ccccc1NC(=O)c1cnc2sc(N3CCCC3)nn2c1=O	-8%	-5%
COc1ccc(C(CC(=O)NCc2cccnc2)Sc2n[nH]c(-c3ccc(F)cc3)n2)cc1 (centres undefined)	-2%	133%[activator]

Profiles from above. Order of values: StopGo FLuc, 2A Renilla
Cc1ccc(NC(=O)CN2C(=O)CC(C)Sc3ccccc32)c(C)c1 (centres undefined) in the list: 12%, 0%
CCOc1ccc(NC(=O)C2CCCN(S(=O)(=O)c3ccc4[nH]c(=O)ccc4c3)C2)cc1 (centres undefined) in the list: -17%, -3%
CCCc1[nH]nc2c1C(c1ccccc1)C(C#N)=C(N)O2 (centres undefined) in the list: 11%, 4%
COc1ccc(C(CC(=O)NCc2cccnc2)Sc2n[nH]c(-c3ccc(F)cc3)n2)cc1 (centres undefined) in the list: -2%, 133%[activator]
CCNC(=O)c1cccc(NC(=O)Cc2c[nH]c3ccccc23)c1 in the list: 0%, 15%

Further compounds.
SMILES	StopGo FLuc	2A Renilla
CC1(C)CC(NC(=O)Nc2ccc(OC(F)F)cc2)CC(C)(C)N1	5%	-4%
O=C(CN1C2=NCCN2c2ccccc21)c1cccc(Br)c1	-17%	-12%
Fc1ccc(NC(=S)NCCC2=CCCCC2)cc1	9%	87%[activator]
CCCOc1ccc(C(=O)N2CCCCC2CCN2CCOCC2)cc1 (centres undefined)	-2%	3%
CCSCc1ccc(C(=O)O)cc1	12%	3%
Cc1cc(C)c(NC(=O)COC(=O)c2cccc(O)c2)c(Cl)c1	0%	-13%
Cc1cc(C)cc(OCC(=O)Nc2ccc(-c3nc4ccccc4s3)cc2)c1	143%[activator]	-4%
C=CCNC(=O)c1cc(-c2ccccc2C)nc2ccccc12	-8%	3%
COc1ccccc1CNC(=O)CS(=O)(=O)Cc1nc(-c2ccccc2C)oc1C	-6%&5%	15%&-4%
CN(C)C1=C(C(=O)Nc2ccc(F)cc2)S(=O)(=O)c2ccccc21	122%[activator]	-3%
Cc1ccc(C(=O)Nc2ccc(-c3nc4ccccc4s3)c(C)c2)cc1	182%[activator]	11%
CC(C)OCCCNC(=O)CCCN1C(=O)CCn2nc(-c3cccn3C)cc21	-2%	-13%
Cc1ccc(-c2cc(C(=O)N3CCN(S(=O)(=O)c4ccc(Br)s4)CC3)[nH]n2)c(C)c1	-6%	2%
CS(=O)(=O)N1CCc2cc(C(=O)Nc3cccc(F)c3)ccc21	255%[activator]	15%
O=C(/C=C/c1ccccc1)N1CCN(Cc2cc(=O)n3nc(-c4ccccc4Cl)sc3n2)CC1	3%	-4%
CCOc1ccccc1NC(=O)C(Cc1ccccc1)NS(=O)(=O)c1ccc(Br)s1 (centres undefined)	?	192%[activator]
CC(C)(C)NC(=O)CC1(C(=O)N2CCC(c3c[nH]c4ccccc34)CC2)CCCC1	0%	24%
O=C(Nc1ccc2[nH]c(=O)[nH]c2c1)C(Cc1ccccc1)n1cnnn1 (centres undefined)	-18%	-17%
CCC(=C/c1ccccc1)/C=N/O	-1%	0%
CC(C)C(Br)C(=O)Nc1ccccc1F (centres undefined)	81%[activator]	18%
Cc1ccc(S(=O)(=O)c2nnn3c2nc(NC(C)C)c2cc(Cl)ccc23)cc1C	2%	-5%
CCCCCOc1ccccc1Cn1c(=O)oc2ccc(C)cc21	-16%	-2%
O=C(NCC1CC1)C1CCCN(C(=O)Cc2c[nH]c3ccccc23)C1 (centres undefined)	-7%	-1%
O=C(COC(=O)c1csc(NCc2ccccc2)n1)NC1CCCC1	-15%	-15%
CCc1nc2nc(C)cc(Nc3ccc(Br)cc3F)n2n1	-7%	-12%
CCC(Oc1ccccc1)C(=O)Nc1ccc(S(=O)(=O)NCC(=O)c2ccccc2)cc1 (centres undefined)	11%	85%[activator]
CCOC(=O)c1cnc2ccc(Cl)cc2c1NCCN(C)C	16%	-4%
Cc1ccccc1OCCn1c(CCNC(=O)C(C)(C)C)nc2ccccc21	-13%	22%
Cc1ccc(-n2ncc3c(NCCCN(C)C)ncnc32)cc1Cl	158%[activator]	1%
Cc1cccc(C)c1NC(=O)Cn1c(=O)n(CCC(=O)NCc2ccccc2Cl)c(=O)c2sccc21	2%	52%[activator]
Clc1cccc(-c2nc(CSc3ncn[nH]3)co2)c1	0%	-6%
COc1ccc(OCC(=O)NCc2ccco2)c(C(=O)O)c1	17%	2%
C=CCNC(=O)CN(C)CC(=O)NC1CC1	17%	0%
Cc1oc(-c2nc(C#N)c(NCc3ccccc3)o2)cc1S(=O)(=O)N1CCOCC1	-13%	4%
C[C@]12Cc3nonc3C[C@@H]1CC[C@@H]1[C@@H]2CC[C@@]2(C)[C@H]1CC[C@]2(C)O	-11%[11.5 µM]	?
CCN(C(=O)c1nn(-c2ccc(OC)c(Cl)c2)c(=O)c2c1c1ccccc1n2C)c1cc(OC)ccc1OC	-26%	1%
O=C(Nc1ccc(-c2ccc(Cl)cc2)cc1)c1ccncc1	?	?
C=CCNC(=O)NC(=O)CN(C)CC(=O)Nc1ccccc1C(F)(F)F	6%	16%
CN(C)c1ccc(/C=N/NC(=O)C(c2ccccc2)c2ccccc2)cc1	8%	6%
CCCN1CCN(c2cc(C(=O)O)c3cc(NC(=O)c4ccccc4C)ccc3n2)CC1	3%	-1%
CC(C)C(=O)N1c2ccccc2NC2=C(C(=O)CC(C)(C)C2)C1c1ccccc1 (centres undefined)	8%	52%[activator]
Cc1ccc(NC(=O)CSc2nnc3[nH]c(=O)cc(-c4ccccc4)n23)cc1Cl	16%	-5%
CCCCCCCCCCCC(=O)N/N=C/C1CCCCC1	12%	5%
COC(=O)c1nc(-c2ccc(F)cc2)no1	5%	-16%
CC1=CCCC(C)(C)C1/C=C/C(C)=N\Nc1cc(C(F)(F)F)ccc1Cl (centres undefined)	-4%	-15%[1.06 µM]
O=S(=O)(NCc1nc2cccnc2n1Cc1ccccc1)c1ccc2c(c1)CCCC2	-19%	38%[activator]
O=C(CCc1ncc(-c2c(F)cccc2F)o1)Nc1ccc(Br)cc1	24%	8%
CC(C)C(=O)Nc1ccc2[nH]cc(C(C(=O)O)N3C[C@H](C)C[C@H](C)C3)c2c1 (some centres undefined)	10%	1%
Cc1ccsc1C(=O)OCC(=O)OC1CC(C)CCC1C(C)C (centres undefined)	1%	-4%
CCc1nc(CNCc2cccc(NC(=O)c3ccc(F)cc3)c2)cs1	-6%	-23%

Two consecutive compounds from above, for reference:
SMILES	StopGo FLuc	2A Renilla
COC(=O)c1nc(-c2ccc(F)cc2)no1	5%	-16%
CC1=CCCC(C)(C)C1/C=C/C(C)=N\Nc1cc(C(F)(F)F)ccc1Cl (centres undefined)	-4%	-15%[1.06 µM]

A second format for part of the listing above.
mol: O=S(=O)(NCc1nc2cccnc2n1Cc1ccccc1)c1ccc2c(c1)CCCC2
- StopGo FLuc: -19%
- 2A Renilla: 38%[activator]

mol: O=C(CCc1ncc(-c2c(F)cccc2F)o1)Nc1ccc(Br)cc1
- StopGo FLuc: 24%
- 2A Renilla: 8%

mol: CC(C)C(=O)Nc1ccc2[nH]cc(C(C(=O)O)N3C[C@H](C)C[C@H](C)C3)c2c1 (some centres undefined)
- StopGo FLuc: 10%
- 2A Renilla: 1%

mol: Cc1ccsc1C(=O)OCC(=O)OC1CC(C)CCC1C(C)C (centres undefined)
- StopGo FLuc: 1%
- 2A Renilla: -4%

(listing goes on)
SMILES	StopGo FLuc	2A Renilla
CN(C)c1ccc(C(=O)NCc2coc(-c3cccs3)n2)cc1[N+](=O)[O-]	28%	-25%
CCOc1ccc(CN(C(=O)c2nc(SC)ncc2Cl)C2CCS(=O)(=O)C2)cc1 (centres undefined)	-13%	14%
COc1ccc(NCCC(c2ccc(F)cc2)c2ccc(Cl)cc2)cc1 (centres undefined)	11%	20%
O=C(NCCc1ccc(Cl)cc1)c1nc(-c2cccc(F)c2)n2c1CCCCC2	-20%	-1%
CC(C)c1nn2c(=O)cc(COC(=O)CNC(=O)c3ccccc3Cl)nc2s1	-1%	-6%
COc1cc(C(=O)Nc2nc3c(s2)Cc2c(Br)ccc(OC)c2-3)cc(OC)c1OC	3%&1%	98%&22%[activator]
CC(Oc1ccc(C#N)cc1)C(=O)NC(C1CC1)C1CC1 (centres undefined)	-10%	11%
C#Cc1cccc(NC(=O)Cc2cccc(OC)c2)c1	18%	25%
COc1ccccc1CNC(=O)Cn1nc(C)n2cccc2c1=O	-22%	-19%
Fc1ccccc1N1CCN(c2nc(-c3cccnc3)nc3ccccc23)CC1	?	?
O=C(c1ccc(-c2ccc(F)cc2)s1)N(Cc1ccco1)C1CC1	63%[activator]	37%[activator]
COc1cccc(NC(=O)C2CCN(S(=O)(=O)c3c(C)noc3/C=C/c3cccs3)CC2)c1	?	-24%
Cc1ccc(N2C(=O)c3cc(-c4ccco4)nn3CC2(C)C(=O)NC2CCCCC2)cc1 (centres undefined)	-7%	22%
Cc1sc2nc(SCc3noc(C(C)(C)C)n3)n(C)c(=O)c2c1C	3%	-7%
CC(C)(C)C(=O)Cn1c(=O)n(CCCCCC(=O)NCc2ccc3c(c2)OCO3)c(=O)c2sccc21	-23%	-13%
